StopGo reporter: High Throughput Screening for Foot and Mouth Disease Virus Antivirals. human cells with a luciferase reporter of 2A StopGo recoding; control for the full effect not named in the record. Potency, µM (doses to about 57.9 µM), for inactives: at the top dose signal change, negative = less light. hit rate 1.2% among 410,000; active = well fitted falling curve with a large enough effect; inconclusive = small, poorly fitted or top-dose-only effect; inactive = no such curve, though single readings can be large or run the other way; tested in HEK293T cells; further: on the % scale 0 is the no-effect control and ±100 the full control effect; nearly all actives have a fitted effect of over 45% in size; luciferase light after 4 h
SARS PLpro yeast: qHTS of Yeast-based Assay for SARS-CoV PLP. S. cerevisiae expressing SARS-CoV PLpro, growth rescue; control for the full effect not named in the record. Potency, µM (doses to about 32.9 µM), for inactives: at the highest dose activity, positive = growth rescue. hit rate 0.19% among 330,000; active means well fitted rising curve with a large enough effect; inconclusive means small, poorly fitted or top-dose-only effect; inactive means no such curve, though single readings can be large or run the other way; further: 0% is about no effect; nearly all actives have a fitted effect of over 55% in size; growth read by luminescence after 48 h
MARV entry inh: qHTS for inhibitors of binding or entry into cells for Marburg Virus; hit rate 1.8% among 300,000; Marburg virus pseudotyped entry inhibition, cell reporter; control for the full effect not named in the record; about a third of the inactives were read at about 46 µM; Potency, µM (titrated, usually from 37.8 µM), for inactives: at the top dose activity change, negative = inhibition, most hits filed as inhibitors; active = well fitted inhibition curve with a large enough effect; inconclusive = small, poorly fitted or top-dose-only effect, or effect the other way; inactive = flat fitted curve, though single readings scatter; tested in HEK293 cells; about a fifth of its hits are not listed in these tables; further: on the % scale 0 is the no-effect control and ±100 the full control effect; luciferase read-out
RE007 growth inh: qHTS Assay for Inhibitors of the HIV-1 protein Vpr; S. pombe RE007 Vpr strain, BacTiter-Glo ATP luminescence, 24 h; control for the full effect not named in the record; hit rate 0.21% among 360,000; Potency, µM (titrated, usually from 92.2 µM), inactives show at the top dose activity change, negative = less growth; active = well fitted falling curve with a large enough effect; inconclusive = small, poorly fitted or top-dose-only effect; inactive = no such curve, though single readings can be large or run the other way;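 further: on the % scale 0 is the no-effect control and ±100 the full control effect; nearly all actives have a fitted effect of over 50% in size; the assay follows cell death caused by Vpr and the record does not say whether a fall means rescue or toxicity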
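Fission yeast strain RE007, carrying one chromosomally integrated HIV-1 vpr copy, was seeded at OD 0.01 in PMG+AL medium with 23 nL pinned compound. After 24 h at 30 °C and 99% humidity, viability was read by BacTiter-Glo luminescence.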
Cruzain inh noDet: qHTS Assay for Promiscuous and Specific Inhibitors of Cruzain (without detergent) | Potency, µM, for the others: max response, negative = inhibition, hits mostly inhibitors | purified cruzain, Z-FR-AMC fluorescence, no detergent | Cruzipain (Trypanosoma cruzi), P25779 | hit rate 2.3% among 200,000;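 further: plate controls were enzyme without inhibitor for no effect and buffer without enzyme for full effect; nearly all actives have a fitted effect of over 40% in size; top concentration of the series not given in the record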
Target sequence (P25779 123-467 limits assumed): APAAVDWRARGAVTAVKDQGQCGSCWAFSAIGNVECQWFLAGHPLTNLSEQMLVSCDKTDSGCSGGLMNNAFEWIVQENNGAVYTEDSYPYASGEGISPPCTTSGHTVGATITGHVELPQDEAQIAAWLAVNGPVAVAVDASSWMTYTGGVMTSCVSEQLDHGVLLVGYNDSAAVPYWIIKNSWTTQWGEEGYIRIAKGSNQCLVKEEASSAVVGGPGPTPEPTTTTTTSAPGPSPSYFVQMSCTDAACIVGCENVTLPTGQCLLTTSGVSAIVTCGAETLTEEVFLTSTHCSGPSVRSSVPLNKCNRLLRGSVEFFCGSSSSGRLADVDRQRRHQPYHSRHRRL
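Detergent-free condition (0.00005% Triton X-100) in acetate buffer pH 5.5 with DTT. 1.5 nM enzyme and compound were pre-mixed 15 min, then 2 uM Z-FR-AMC substrate added; reaction progress from fluorescence change between first and third reads (60 s).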
Cruzain Triton: qHTS Assay for Promiscuous and Specific Inhibitors of Cruzain (with detergent); Cruzipain (Trypanosoma cruzi), P25779; purified cruzain, Z-FR-AMC fluorescence, 0.01% Triton; Potency, µM, for inactives: max response, negative = inhibition, actives largely listed as inhibitors; hit rate 0.43% among 200,000;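 further: plate controls were neutral wells for no effect and buffer without enzyme for full effect; nearly all actives have a fitted effect of over 40% in size; top concentration of the series not given in the record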
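In this qHTS format, compounds are incubated with 1.5 nM cruzain for 15 min at room temperature before 2 uM Z-FR-AMC is added. Release of AMC is followed at 360/450 nm, and progress is taken as the 60 s fluorescence difference.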
LASV entry inh: qHTS for Inhibitors of binding or entry into cells for Lassa Virus; Lassa virus pseudotype entry inhibition, cell reporter; control for the full effect not named in the record; Potency, µM (highest dose often 37.9 µM), for the others: top-dose activity change, negative = inhibition, most hits filed as inhibitors; hit rate 1.2% among 300,000; AID 540256, 2011; active means well fitted inhibition curve with a large enough effect; inconclusive means small, poorly fitted or top-dose-only effect, or effect the other way; inactive means flat fitted curve, though single readings scatter; tested in HEK293 cells; further: on the % scale 0 is the no-effect control and ±100 the full control effect; nearly all actives have a fitted effect of over 50% in size; luciferase read-out
NS1 function inh: qHTS Assay for Inhibitors of Influenza NS1 Protein Function; S. cerevisiae slowed by influenza A NS1, growth recovery by OD600; Potency, µM (series often up to 46.1 µM), for inactives: at the highest dose activity, positive = more growth; hit rate 0.4% among 270,000; AID 2326, 2010; active means well fitted rising curve with a large enough effect; inconclusive means small, poorly fitted or top-dose-only effect; inactive means no such curve, though single readings can be large or run the other way; further: nearly all actives have a fitted effect of over 50% in size
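Growth recovery, yeast-based: influenza A NS1 expressed in S. cerevisiae causes slow growth, and suppressors are detected by OD600. The parent strain without NS1 is used as positive control.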
An asterisk follows results filed as active; [ ] = remark or other dose. Unless noted, the call rests on the fitted dose curve; in most records, active means well fitted curve in the direction sought with a large enough effect; inconclusive means small, poorly fitted or top-dose-only effect, or another doubt; inactive means no such curve, though single readings can be large; an effect the other way counts as inactive or inconclusive. Potency means the concentration at half of the fitted maximal effect.

How did O=C1CC(NNc2ccccc2)C(=O)N1c1ccccc1 (stereo not given) do in these assays?
StopGo reporter: 10.9%; SARS PLpro yeast: 11.6%; MARV entry inh: 14.6%; RE007 growth inh: 26.3%; Cruzain inh noDet: -10.1%; Cruzain Triton: -6.5%; LASV entry inh: 6.4%; NS1 function inh: 4.9%

Results for Cc1ccc(NC2OC(CO)C(O)C(O)C2O)cc1 (stereo not given) ?
StopGo reporter: -16.7%; SARS PLpro yeast: 5.8%; MARV entry inh: 1.5%; RE007 growth inh: -8.3%; Cruzain inh noDet: -0.6%; Cruzain Triton: 6.1%; LASV entry inh: 17.1%; NS1 function inh: 9.1%

Results for O=C(CN(c1ccccc1F)S(=O)(=O)c1ccccc1)Nc1ccc2c(c1)OCCO2 ?
StopGo reporter: -27.5%; SARS PLpro yeast: 2.6%; MARV entry inh: inconclusive; RE007 growth inh: -15.0%; LASV entry inh: 7.0%; NS1 function inh: 16.9%

How did c1ccc(Cn2c(CSc3nnnn3-c3ccccc3)nc3ccccc32)cc1 do in these assays?
StopGo reporter: -4.6%; SARS PLpro yeast: -1.2%; MARV entry inh: -3.6%; RE007 growth inh: -18.4%; Cruzain inh noDet: -17.6%; Cruzain Triton: -4.6%; LASV entry inh: -20.8%; NS1 function inh: 4.0%

Results for Cc1ccc(C(=O)NCC(=O)Nc2ccncc2)cc1 ?
StopGo reporter: -28.8%; SARS PLpro yeast: -6.7%; RE007 growth inh: -8.5%; NS1 function inh: 4.8%

Results for COc1ccc(CCNC(=O)CCN2C(=O)COc3ccc(C)cc32)cc1OC ?
StopGo reporter: -10.7%; SARS PLpro yeast: 0.6%; MARV entry inh: -1.2%; RE007 growth inh: 22.7%; Cruzain inh noDet: 1.7%; Cruzain Triton: 0.4%; LASV entry inh: inconclusive; NS1 function inh: -13.1%

Results for O=C1CC(N2CCN(c3ccc(F)cc3)CC2)C(=O)N1Cc1cccs1 (stereo not given) ?
StopGo reporter: -21.6%; SARS PLpro yeast: -25.5%; MARV entry inh: 12.1%; RE007 growth inh: -24.2%; Cruzain inh noDet: -3.3%; Cruzain Triton: 14.2%; LASV entry inh: 2.2%; NS1 function inh: -30.8%

Results for CCc1ccccc1N1CC23C=CC(O2)C(C(=O)OCC(C)C)C3C1=O (stereo not given) ?
StopGo reporter: -6.5%; SARS PLpro yeast: 3.3%; RE007 growth inh: 3.5%; Cruzain inh noDet: -9.4%; Cruzain Triton: 4.9%; NS1 function inh: -1.5%

Results for O=C(CSc1ccc2ccccc2c1Br)Nc1cccc(S(=O)(=O)NC2=NCCCCC2)c1 ?
StopGo reporter: -18.9%; SARS PLpro yeast: -1.1%; MARV entry inh: inconclusive; RE007 growth inh: 0.6%; Cruzain inh noDet: 20µM*; Cruzain Triton: -5.0%; LASV entry inh: inconclusive; NS1 function inh: inconclusive

How did C=C(C)C1CCC2(C(=O)O)CCC3(C)C(CCC4C5(C)C(C=O)C(O)C(C)(C)C5CCC43C)C12 (stereo not given) do in these assays?
StopGo reporter: inconclusive; SARS PLpro yeast: -3.3%; RE007 growth inh: 8.4%; NS1 function inh: -6.9%

How did COc1ccc(OC)c(/C=c2\sc3nc(-c4cccs4)nn3c2=O)c1 do in these assays?
StopGo reporter: -10.4%; SARS PLpro yeast: -3.3%; MARV entry inh: 15.0%; RE007 growth inh: 25.8%; Cruzain inh noDet: 6.7%; Cruzain Triton: -4.6%; LASV entry inh: 8.0%; NS1 function inh: -1.6%

Results for Cc1cc(C)n2nc(SCC(=O)N/N=C/c3ccccn3)nc2n1 ?
StopGo reporter: -20.7%; SARS PLpro yeast: -3.5%; MARV entry inh: inconclusive; RE007 growth inh: -21.4%; Cruzain inh noDet: 2.5%; Cruzain Triton: -0.4%; LASV entry inh: 11.3%; NS1 function inh: 9.8%

What do the screens show for `COc1ccc(OCc2nnc(SCC(=O)NC3CCCCC3)o2)cc1`?
StopGo reporter: 42.3%[activator]; SARS PLpro yeast: -0.7%; MARV entry inh: 7.0%[46.1 µM]; RE007 growth inh: -0.4%; LASV entry inh: 19.8%; NS1 function inh: -27.3%

What do the screens show for `O=C(NCc1ccc(F)c(F)c1)C1CCC(=O)N(CCc2ccccc2)C1` (stereo not given)?
StopGo reporter: 7.7%; SARS PLpro yeast: 6.0%; RE007 growth inh: -2.9%; NS1 function inh: 8.3%

What do the screens show for `CCOc1ccc(NC(=O)Cn2nnc(C(=O)NCc3ccco3)c2N)cc1`?
StopGo reporter: 5.9%; SARS PLpro yeast: 0.2%; MARV entry inh: -25.9%; RE007 growth inh: 5.4%; Cruzain inh noDet: -1.5%; Cruzain Triton: 6.4%; LASV entry inh: 8.5%; NS1 function inh: 11.8%

Results for CCOc1cccc(/C=N/NC(=O)C2CCCC2)c1O ?
StopGo reporter: 19.0%; SARS PLpro yeast: inconclusive; MARV entry inh: inconclusive; RE007 growth inh: 7.1%; LASV entry inh: inconclusive; NS1 function inh: -3.5%

How did O=C(COC(=O)C12CC3CC(CC(C3)C1)C2)Nc1ccc([N+](=O)[O-])cc1Cl do in these assays?
StopGo reporter: 0.0%; SARS PLpro yeast: -4.7%; MARV entry inh: inconclusive; RE007 growth inh: 5.0%; Cruzain inh noDet: -15.4%; Cruzain Triton: -4.2%; LASV entry inh: -18.8%; NS1 function inh: -0.9%

Results for O=C(CCC(=O)N(CC(=O)NC1CCCCC1)Cc1cccs1)Nc1ccccn1 ?
StopGo reporter: -18.9%; SARS PLpro yeast: -0.1%; MARV entry inh: 16.8%[46.1 µM]; RE007 growth inh: 21.6%; LASV entry inh: -0.4%

What do the screens show for `Cc1ccccc1S(=O)(=O)NC1=NCCCCC1`?
StopGo reporter: -2.5%; SARS PLpro yeast: 5.1%; MARV entry inh: -7.6%; RE007 growth inh: -5.3%; Cruzain inh noDet: 3.7%; Cruzain Triton: 2.2%; LASV entry inh: 5.4%; NS1 function inh: 20.3%

What do the screens show for `CCC(=O)N1c2ccc(S(=O)(=O)CCC(=O)NC3CCCC3)cc2CC1C` (stereo not given)?
StopGo reporter: -1.2%; SARS PLpro yeast: 7.1%; MARV entry inh: -9.9%[46.1 µM]; RE007 growth inh: 26.2%; Cruzain inh noDet: -6.7%; Cruzain Triton: 2.7%; LASV entry inh: -9.8%; NS1 function inh: 2.2%

Results for COc1cc(OC)cc(-c2nnc(NC(=O)CCS(=O)(=O)c3ccccc3)o2)c1 ?
StopGo reporter: -14.0%; SARS PLpro yeast: -0.5%; MARV entry inh: -9.0%; RE007 growth inh: 6.1%; LASV entry inh: 2.9%

What do the screens show for `Nc1c(Br)cc2c(c1Br)C(O)c1ccccc1-2` (stereo not given)?
StopGo reporter: 2.9%; MARV entry inh: 3.2%; RE007 growth inh: -25.5%; LASV entry inh: 12.9%[46.1 µM]

Results for Cc1cccc(C)c1N1CC(c2nc3ccccc3n2CC(=O)OC(C)C)CC1=O (stereo not given) ?
StopGo reporter: -24.2%; MARV entry inh: 3.1%[46.1 µM]; Cruzain inh noDet: 1.9%; Cruzain Triton: -1.6%; LASV entry inh: 25.8%[46.1 µM]

What do the screens show for `COc1ccc(-c2cn3nc(SCC(=O)NCC4CCCO4)ccc3n2)cc1` (stereo not given)?
StopGo reporter: 2.5%; SARS PLpro yeast: -1.6%; RE007 growth inh: -17.0%; NS1 function inh: -4.0%

What do the screens show for `O=C(O)Cc1ccc(-c2ccccc2-c2ccccc2)cc1`?
StopGo reporter: -25.0%; SARS PLpro yeast: -17.2%; MARV entry inh: -4.7%; RE007 growth inh: 19.6%; Cruzain inh noDet: 29.8%; Cruzain Triton: -9.0%; LASV entry inh: -2.2%; NS1 function inh: 6.3%

How did CN1N=C(C(=O)N=c2sc3ccccc3n2C)CCC1=O do in these assays?
StopGo reporter: 22.2%; MARV entry inh: inconclusive; RE007 growth inh: 1.5%; LASV entry inh: -1.8%[46.1 µM]

What do the screens show for `COC(=O)c1c(NC(=O)COC(=O)Cn2cnc3ccccc32)sc2c1CCCC2`?
StopGo reporter: -10.2%; SARS PLpro yeast: -15.4%; MARV entry inh: inconclusive; RE007 growth inh: -9.3%; Cruzain inh noDet: -1.3%; Cruzain Triton: -6.9%; LASV entry inh: -19.5%; NS1 function inh: -8.1%

How did CCC(C)C(=O)Nc1nc(C)c(-c2csc(Nc3cc(OC)ccc3OC)n2)s1 (stereo not given) do in these assays?
StopGo reporter: -29.9%; SARS PLpro yeast: 6.4%; RE007 growth inh: -8.2%; Cruzain inh noDet: -19.8%; Cruzain Triton: -5.6%; NS1 function inh: 16.9%

Results for Cc1ccc[n+](CC(O)Cn2c3ccccc3c3ccccc32)c1 (stereo not given) ?
StopGo reporter: 0.0%; SARS PLpro yeast: 18.3%; MARV entry inh: 2.0%; RE007 growth inh: 9.9%; Cruzain inh noDet: 1.1%; Cruzain Triton: -3.7%; LASV entry inh: 1.6%; NS1 function inh: 1.6%

What do the screens show for `c1ccc(OCCSc2nnnn2C2CCCCC2)cc1`?
StopGo reporter: -21.8%; SARS PLpro yeast: -2.9%; MARV entry inh: -4.9%; RE007 growth inh: -16.8%; Cruzain inh noDet: -8.7%; Cruzain Triton: -5.5%; LASV entry inh: 14.1µM*; NS1 function inh: -14.4%

What do the screens show for `Clc1cnc(N/N=C/c2cccs2)c(Cl)c1`?
StopGo reporter: 17.4%; SARS PLpro yeast: inconclusive; MARV entry inh: inconclusive; RE007 growth inh: 7.2%; Cruzain inh noDet: -1.3%; Cruzain Triton: -2.8%; LASV entry inh: inconclusive; NS1 function inh: -147.4%

How did CCOC(=O)c1ccc2nc(C)c(C)nc2c1 do in these assays?
StopGo reporter: 11.7%; SARS PLpro yeast: -0.2%; MARV entry inh: 12.3%[46.1 µM]; RE007 growth inh: -7.5%; LASV entry inh: inconclusive; NS1 function inh: 5.3%

Results for O=C(NCC(=O)N1CCCC(C(F)(F)F)C1)c1ccccc1Br (stereo not given) ?
StopGo reporter: 15.1%; SARS PLpro yeast: -1.3%; MARV entry inh: 13.3%; RE007 growth inh: 5.5%; LASV entry inh: 1.4%[46.1 µM]

How did O=C1c2cccc(Sc3ccccc3)c2C(=O)c2c(Sc3ccccc3)cccc21 do in these assays?
StopGo reporter: 6.1%; SARS PLpro yeast: 0.5%; MARV entry inh: 0.6%[46.1 µM]; RE007 growth inh: -1.5%; LASV entry inh: 13.6%; NS1 function inh: 5.3%

Results for CC(C)(C)C(=O)O/N=C(\N)c1ccc(Br)cc1 ?
StopGo reporter: 44.8%[activator]; SARS PLpro yeast: -1.3%; MARV entry inh: 11.6%[46.1 µM]; RE007 growth inh: 12.9%; LASV entry inh: -26.4%; NS1 function inh: -4.3%
